# ClpP mod – qHTS Assay for Activators of ClpP; ATP-dependent Clp protease proteolytic subunit (Bacillus subtilis (strain 168)), P80244; purified B. subtilis ClpP, FRET peptide cleavage, 20 min; Potency, µM (highest dose often 57.5 µM), for inactives: top-dose activity change, negative = active; hit rate 1.9% among 340,000; active = well fitted falling curve with a large enough effect; inconclusive = small, poorly fitted or top-dose-only effect; inactive = no such curve, though single readings can be large or run the other way; further: potency means the concentration at half of the fitted maximal effect; the source files actives as falling curves though it sought activators and does not explain the sign; nearly all actives have a fitted effect of over 65% in size; many hits overshoot -100%
# Target sequence (P80244 whole entry, looked up): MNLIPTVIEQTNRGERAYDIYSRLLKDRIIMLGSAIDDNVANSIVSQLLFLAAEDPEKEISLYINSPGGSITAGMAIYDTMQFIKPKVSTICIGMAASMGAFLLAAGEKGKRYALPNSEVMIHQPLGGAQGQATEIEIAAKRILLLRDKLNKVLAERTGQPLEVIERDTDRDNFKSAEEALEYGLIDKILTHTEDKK
#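 Buffer: 100 mM Tris/HCl pH8, 100 mM KCl, 0.05% low protease BSA, 2.5% glycerol, 0.01% Tween-20. ClpP 10 microg/mL final; 20 min RT; delta FRET normalized to ADEP and DMSO controls.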
# gsp antag – antagonists of gsp mutant (McCune-Albright syndrome). hit rate 0.4% among 340,000. Potency, µM (series often up to 76.9 µM), for inactives: at the top dose activity change, negative = inhibition, actives largely listed as inhibitors. gsp-mutant cells, cAMP HTRF, 30 min; control for the full effect not named in the record; active = falling curve of any shape with a large fitted effect; inconclusive = falling curve, mostly with a smaller effect; inactive = flat or rising curve; cell line not stated here;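 further: intracellular cAMP measured with PDE inhibitor Ro 20-1724 present during compound exposure; potency means the concentration at half of the fitted maximal effect; on the % scale 0 is the no-effect control and ±100 the full control effect; nearly all actives have a fitted effect of over 65% in size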
#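 HTRF cAMP measurement after 30 min RT detection following 30 min, 37C compound treatment alongside […] (added as 300 uM solution) in G418-selected cells seeded at 2000/well and grown 16–24 h.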
# D2 ag – agonists of human D2 dopamine receptor (beta-arrestin) | P14416 | DiscoveRx PathHunter D2 beta-arrestin, luminescence, 90 min; 100% = 57 uM dopamine signal | activation, % (no concentration beside the values) | hit rate 0.084% among 360,000 | AID 624465; in the data active = activation above about 40%; inconclusive = about 15% to 40%; inactive = below about 15%; further: compound concentration not given in the record; the text of the record calls up to 30% inactive
# Target sequence (P14416 whole entry, looked up): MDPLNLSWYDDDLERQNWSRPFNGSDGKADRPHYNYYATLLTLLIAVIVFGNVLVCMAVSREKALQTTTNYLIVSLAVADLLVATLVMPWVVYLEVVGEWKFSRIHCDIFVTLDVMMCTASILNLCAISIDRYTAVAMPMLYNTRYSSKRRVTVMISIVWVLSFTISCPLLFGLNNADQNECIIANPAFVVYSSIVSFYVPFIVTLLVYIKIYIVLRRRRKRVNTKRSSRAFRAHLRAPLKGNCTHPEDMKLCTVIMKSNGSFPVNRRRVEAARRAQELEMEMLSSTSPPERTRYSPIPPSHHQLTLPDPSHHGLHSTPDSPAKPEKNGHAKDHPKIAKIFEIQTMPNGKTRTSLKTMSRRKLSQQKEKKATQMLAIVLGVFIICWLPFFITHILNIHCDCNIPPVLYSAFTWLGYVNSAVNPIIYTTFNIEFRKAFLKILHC
#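 Agonist mode: compounds alone added to overnight-plated D2 PathHunter cells for 90 min at 37 C, with 57 uM final dopamine (EC100) defining full response. Beta-arrestin recruitment detected by chemiluminescent reagent, read after 1 h at ambient temperature.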
# gsp ag – activates gsp, the McCune-Albright syndrome mutation; gsp mutant cells, cAMP HTRF, 30 min; control for the full effect not named in the record; Potency, µM (titrated, usually from 76.9 µM), for inactives: at the highest dose activation (cAMP increase), usual class: activators; hit rate 0.13% among 340,000; AID 624287; active = well fitted activation curve with a large enough effect; inconclusive = small, poorly fitted or top-dose-only effect, or another doubt; inactive = no such curve, though single readings can be large or run the other way; cell line not stated here;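 further: phosphodiesterase inhibitor Ro 20-1724 added with compounds to block cAMP breakdown; potency means the concentration at half of the fitted maximal effect; nearly all actives have a fitted effect of over 60% in size; about a fifth of the inactives were tested at one dose only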
#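 Cells in DMEM/10% FBS with G418 were pretreated with compounds in DMSO plus […] (300 uM stock) for 30 min at 37C. cAMP was measured by HTRF (cAMP-d2 plus anti-cAMP antibody-K) after 30 min at room temperature.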
# PINK1 expr mod – PINK1 expression modulation | PINK1 immunofluorescence, high-content cytometry, 24 h | Potency, µM (series often up to 76.6 µM), inactives show at the top dose activation (PINK1 increase), hits mostly activators | hit rate 0.2% among 410,000 | AID 624263; active = well fitted activation curve with a large enough effect; inconclusive = small, poorly fitted or top-dose-only effect; inactive = flat fitted curve, though single readings scatter; cell line not stated here;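 further: potency means the concentration at half of the fitted maximal effect; % of control where 0% means no effect; nearly all actives have a fitted effect of over 65% in size; a mitochondrial uncoupler was the plate control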
#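 Stable cell line treated 24 h with compounds at 5 concentrations (CCCP controls), then fixed and immunostained for PINK1 plus nuclear and cell stains; PINK1 immunofluorescence quantified by laser-scanning microplate cytometry.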
# Sfp inh – blocks B. subtilis Sfp PPTase activity | Q9F4F7 | Biochemical Sfp PPTase activity, qHTS | Potency, µM, for inactives: max response, negative = inhibition, actives largely listed as inhibitors | hit rate 3.5% among 310,000; active means well fitted inhibition curve with a large enough effect; inconclusive means small, poorly fitted or top-dose-only effect, or another doubt; inactive means no such curve, though single readings can be large or run the other way;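 further: the enzyme is Sfp with the accession as filed and its product quenches rhodamine fluorescence; potency means the concentration at half of the fitted maximal effect; 0% = enzyme reaction without inhibitor and -100% = no enzyme wells; top concentration of the series not given in the record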
#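 Step 1, compound plus 15 nM Sfp-PPTase, 15 min, room temperature. Step 2, add rhodamine-CoA (5 uM) and BHQ-2-YbbR (12.5 uM). Step 3, read 525/598 nm fluorescence at 0 and 30 min.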
# Menin-MLL FL inh – displaces fluorescein MLL peptide from human menin; 290,000 tested, under 10 active; FP activity change, % at 61.4 µM; Fluorescence polarization, fluorescein-MLL peptide displacement from menin; inconclusive = falling polarisation curve, or a change in total fluorescence; inactive = total fluorescence flat and polarisation flat or rising; no compound was filed as active; the % refers to the polarisation; negative = inhibition;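 further: % of control where 0% means no effect; inhibitors lower the polarisation; unlabelled MLL peptide was the positive control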
# * = called active by the depositor; ? = inconclusive; · = not tested or not shown; & = joins results of further samples; [ ] = dose if it differs, or a comment.
SMILES,ClpP mod,gsp antag,D2 ag,gsp ag,PINK1 expr mod,Sfp inh,Menin-MLL FL inh
Nc1cc(Cl)nc(N/N=C/c2c(O)ccc3ccccc23)n1,-2.3%,-2%,-13,-15%[15.4 µM],0.4%,23%,21
COc1ccc(NC(=O)CN2C(=O)NC(C)(c3ccc(C)cc3)C2=O)cn1 (stereo unspecified),-3.2%,1%,3.9,?,1.4%,·,·
O=C(CN1C(=O)NC2(CCCCCC2)C1=O)c1ccccc1,0.7%,3%,6.7,-9%,-0.4%,4%,6.7
CCCCOC(=O)CSc1nc(N)c(C#N)c(-c2ccc(OC)cc2)c1C#N,-8.8%,25%,-2.0,27%,0.0%,7%,5.6
CC(=O)c1cc(CN2CCN(C(C)C)C(CCO)C2)cs1 (stereo unspecified),·,5%,2.2,15%,-1.7%,15%,2.1
Clc1ccc(-c2ccnc(Oc3cc(Cl)ccc3Cl)n2)cc1,-0.9%,4%,-2.4,29%,2.4%,?,4.0
CSc1ccc2nnc(-c3cccc(F)c3)n2n1,-24%,-2%,-1.1,?,-7.2%[38.3 µM],-10%,5.4
CC1CCC(N2CCNCC2)CC1 (stereo unspecified),0.0%,9%,2.8,-40%[inhibitor],-1.7%,14%,-1.4
C=CCn1c(CNC(=O)c2ccccc2F)nnc1SCC(=O)N1CCOCC1,-5.6%,9%,0.0,-7%,-1.7%,4%,-6.0
CCCCn1c(=O)c(CCC(=O)OCC(=O)Nc2cccc3ccccc23)nc2ccccc21,-1.5%,-16%,-8.3,17%[15.4 µM],-0.6%,8%,11
Cc1cc(F)ccc1NC(=O)C(C)n1c2ccccc2c2nc(=O)cc(C)n21 (stereo unspecified),-21%,-19%,-2.8,-26%,-0.8%,11%,3.5
CCOC(=O)COc1ccc(S(=O)(=O)N2CCc3ccccc3C2)cc1,-0.2%,-31%,-1.1,?,·,0%,2.1
Cc1c2c([n+]3n1CCC3)CC(C)(C)CC2=O,0.2%,5%,-0.4,-53%,0.5%[38.3 µM],3%,1.8
CCCCn1c(=O)c2ccccc2c2ccccc2c1=O,-4.6%,-7%,-5.5,-40%[inhibitor],1.2%,-8%,-1.1
CCC1CCCCN1CCCNS(=O)(=O)c1ccc2c(c1)oc(=O)n2C (stereo unspecified),0.8%,8%,-3.9,15%,-0.1%,-1%,·
Clc1cccc(CN2CCC3CC2c2cc(N4CCCCC4)ccc23)c1 (stereo unspecified),-0.7%,0%,-2.1,·,5.7%,·,·
CC/C(=N\O)c1ccc(OC)c(OC)c1,0.5%,13%,-4.1,-12%,-1.1%,6%,-3.9
COc1ccc(C2OC(=O)CC2C(=O)NCc2ccccc2Cl)cc1OC (stereo unspecified),·,8%,2.1,2%,-1.0%,1%,-0.5
CC(=O)NC(=S)NNC(=O)CCc1ccccc1,-2.3%,6%,-18,-40%[inhibitor],3.2%,?,-4.5
Cc1cn([C@H]2C[C@H](O)[C@@H](CNC(=O)[C@H](N)Cc3cccnc3)O2)c(=O)[nH]c1=O,0.9%,·,-8.6,22%,0.0%,·,·

# Shown tab-delimited: part of the list above
Molecule	ClpP mod	gsp antag	D2 ag	gsp ag	PINK1 expr mod	Sfp inh	Menin-MLL FL inh
Clc1cccc(CN2CCC3CC2c2cc(N4CCCCC4)ccc23)c1 (stereo unspecified)	-0.7%	0%	-2.1	·	5.7%	·	·
CC/C(=N\O)c1ccc(OC)c(OC)c1	0.5%	13%	-4.1	-12%	-1.1%	6%	-3.9

# Random excerpt: 2 entries already listed, in no set order.
SMILES,ClpP mod,gsp antag,D2 ag,gsp ag,PINK1 expr mod,Sfp inh,Menin-MLL FL inh
Clc1cccc(CN2CCC3CC2c2cc(N4CCCCC4)ccc23)c1 (stereo unspecified),-0.7%,0%,-2.1,·,5.7%,·,·
CCC1CCCCN1CCCNS(=O)(=O)c1ccc2c(c1)oc(=O)n2C (stereo unspecified),0.8%,8%,-3.9,15%,-0.1%,-1%,·

# Additional structures.
SMILES,ClpP mod,gsp antag,D2 ag,gsp ag,PINK1 expr mod,Sfp inh,Menin-MLL FL inh
Cn1c(=O)c(C(=O)CN2CCCc3ccccc32)c(N)n(Cc2ccccc2)c1=O,-1.6%,6%,-5.2,0%,-1.8%,-18%,?
COc1ccc(C(=O)Nc2cccc(OC(=O)c3ccco3)c2)cc1,·,-3%,-1.8,1%[15.4 µM],1.5%,8%,-7.3
Cc1ccc(OCC(=O)Nc2ccccc2Sc2ccccc2)c([N+](=O)[O-])n1,-2.9%,12%,-2.2,-36%,6.3%,7%,3.2
Cc1ccc(CSCc2ccc(C(=O)O)o2)cc1,2.8%,-5%,-1.2,2%,-0.5%,9%,16
O=[N+]([O-])c1cccc(C=Nc2cccc3ccccc23)c1O,·,-23%,-3.4,?,4.1%,3%,1.9
Cc1noc(C)c1S(=O)(=O)Nc1ccc(C(=O)NCCc2ccccc2)cc1,-1.1%,-19%,-3.4,19%,-0.6%,19%,3.3
CCC(c1nnnn1Cc1ccco1)N(Cc1cc2cc(OC)ccc2[nH]c1=O)C1CCCCC1 (stereo unspecified),-2.8%,-10%,-1.6,-8%,-0.4%,3.5µM*,?
COc1ccc(Cc2nc3c([nH]2)c(=O)n(C)c(=O)n3C)cc1OC,·,21%,-0.9,-16%,1.0%,·,·
Cc1ccc(C)n1-c1ccc(C(=O)NC2CCN(Cc3ccccc3)CC2)cc1,-1.5%,6%,-3.1,-28%,1.6%,5%,0.4
CCn1c(CNC(=O)c2ccccc2)nnc1SCC(=O)N1CCN(c2ccccc2)CC1,-1.1%,-3%,1.6,?,-1.3%,12%,0.7
COC(=O)C1=C(N)Oc2cc(C)n(C)c(=O)c2C1c1ccc(Cl)cc1 (stereo unspecified),1.3%,1%,-3.4,-5%,2.3%,-2%,-0.6
Cc1ccc(CCS(=O)(=O)c2ccc(C(C)(C)C)cc2)cn1,0.7%,-6%,0.9,4%[15.4 µM],1.3%,17%,-2.3
COc1ccc(CCN=Cc2c(C)[nH]n(-c3ccc([N+](=O)[O-])cc3)c2=O)cc1OC,-21%,19%,-1.6,-54%[inhibitor],-3.7%,4%,1.6
COc1ccc(C(=O)NCC(=O)N/N=C/c2c(C)[nH]c3ccccc23)cc1OC,-2.6%,2%,-1.6,-1%,-0.3%,-5%,3.3
COc1ccc(-c2cn3cccnc3n2)cc1Br,49%,1%,1.8,-18%,0.2%,3%,2.8
CCCOc1ccc(CNC(=O)C2CCN(c3nn4c(=O)cc(C)nc4s3)CC2)cc1,3.8%&-2.6%,-12%,1.3,?,2.8%&2.1%,7%,1.1
Cc1c(Br)c([N+](=O)[O-])nn1C(C)C(=O)N1CCc2ccccc2C1 (stereo unspecified),1.8%,-10%,0.0,-19%,1.4%,14%,·
CCC(=O)N(Cc1cc(=O)[nH]c2ccccc12)c1ccc(OC)cc1,·,-1%,4.6,-26%,-3.1%,4%,-3.3
O=C(COc1cc(=O)n2c(n1)SCCC2)c1ccccc1,1.8%,-8%,-1.4,-2%,1.1%,3%,2.9
O=S(=O)(Nc1ccc(-n2cccc2)cc1)c1ccc(F)cc1,·,-8%,0.3,3%[15.4 µM],6.2%,10%,3.8
CC(OC(=O)c1ccncc1)C(=O)NC1CCCC1 (stereo unspecified),1.5%,4%,5.3,1%,-1.3%,-4%,-1.0
CSCCC(NC(=O)c1ccccc1Br)C(=O)NNC(=O)c1ccco1 (stereo unspecified),-0.6%,3%,-2.5,21%,-1.1%,·,·
CCCN1CCC(NC(=S)Nc2ccc([N+](=O)[O-])cc2)CC1,0.1%,1%,-5.1,-67%[inhibitor],0.3%,-8%,-4.8
NS(=O)(=O)c1ccc(NC(=O)c2ccccc2Cl)cc1,-2.5%,2%,-2.9,-26%,-2.6%,-2%,3.6
N#Cc1c2n(c3c(=O)n(Cc4ccccc4Cl)cnc13)CCCCC2,-1.1%,1%[15.4 µM],-2.8,15%,-0.5%,-16%,-0.5
Cc1ccc(CNC(=O)CCn2cc(-c3ccc(C)cc3)nc2CCN)cc1,0.8%,3%,-4.7,·,0.4%,·,·
Cc1ccc(NC(=O)Cn2cccc2)cc1,-0.2%,5%,-4.1,-3%,0.5%,11%,1.4
Cc1ccc(S(=O)(=O)N2CCOCC2)cc1NC(=O)COC(=O)/C=C/c1ccc(F)cc1,0.1%,-19%,3.5,-1%,12%,·,·
O=C(NCc1ccc(OC(F)(F)F)cc1)C1CC(c2ccc(C(F)(F)F)cc2)=NO1 (stereo unspecified),1.8%,6%,0.7,11%,7.0%,·,·
Cc1ccc(C2=NN(C(=O)c3ccco3)C(O)(C(F)(F)F)C2)cc1 (stereo unspecified),-2.2%,3%,0.2,-14%,1.6%,-7%,2.0
COCCC(=O)N1CCCC(C(=O)c2ccc(Oc3ccccc3)cc2)C1 (stereo unspecified),·,-6%,3.6,?,0.6%,5%,-3.3
CC(=O)Nc1cc(-c2ccc(N3CCN(C)CC3)cc2)cn2c(-c3ccccc3)cnc12,-20%,·,2.7,·,3.6%,·,·
O/N=C\c1cnc(N2CCN(c3ccccc3)CC2)s1,0.8%,4%,2.1,5%,1.4%,2%,-1.8
COc1cccc(NC(=O)CSc2nc3ccccc3n2C)c1,2.3%&-0.9%,-1%,-1.3,-1%,2.3%&0.3%,3%,-1.7
Cc1c(NS(=O)(=O)c2ccc(C(=O)NCc3ccccc3)cc2)c(=O)n(-c2ccccc2)n1C,·,-8%,0.9,2%,3.7%,27%,-5.5
CC(C)(C)NC(=O)COc1ccc2oc3c(c2c1)CCCC3,·,-17%,3.2,-13%[15.4 µM],3.7%,11%,-1.3
COc1ccc(-c2nnc3c4ccccc4c(C)nn23)cc1S(=O)(=O)N1CCN(CCO)CC1,?,15%,-5.5,?,-0.7%[38.3 µM],25%,1.2
CCOC(=O)COc1ccc(S(=O)(=O)Nc2ccc3c(c2)OCCO3)cc1,0.8%,-24%,1.2,?,·,4%,2.1
CN1C(=O)C2C(c3ccc(N(C)C)cc3)NN(Cc3ccccc3)C2C1=O (stereo unspecified),·,·,-4.5,-13%[15.4 µM],-1.2%,-5%,-2.9
